NPYLR7 ag = activates Aedes aegypti NPYLR7 receptor; AID 1259423; hit rate 0.15% among 270,000; HEK293T NPYLR7/Galpha15, GCaMP6s calcium fluorescence; activation, % at 10 µM; in the data active = activation above about 40%;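 note: 0% = vehicle and 100% = reference agonist at the receptor; some compounds past the cut are filed as inactive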
NPYLR7 ag max-min = recorded beside NPYLR7 ag, whose call it bears; activation, %; measured here: Max-Min RFU normalised activation; some inactives read as strong as hits;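 span of the calcium signal over five minutes; 0% = vehicle and 100% = native peptide agonist; compound fluorescence can raise it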
* = called active by the depositor.

SMILES	NPYLR7 ag	NPYLR7 ag max-min
O=C(CN(CCN1CCOCC1)S(=O)(=O)c1ccc(Cl)c([N+](=O)[O-])c1)Nc1ccccc1	-7	-10
CCOC(=O)N1CCN(C(=O)CSc2ccc(-c3sc(-c4cccs4)nc3C)nn2)CC1	7	0
O=c1cc(CNCC2CCCO2)c2c(ccc3ccccc32)o1 (stereo unspecified)	1	4
CC(=O)N1CCn2nc(C(=O)N3CCCC3c3cc(C(C)C)on3)cc2C1 (stereo unspecified)	-1	-2
Cc1cc(C(=O)Cn2cc(S(=O)(=O)N(C)C)ccc2=O)c(C)[nH]1	-4	-6
CCCC1CCC(=NNC(=O)CNc2ccc(OC)cc2)CC1 (stereo unspecified)	9	2
CCn1c(NC(=O)CCn2c(C)csc2=O)nc2ccccc21	-4	-5
CCN(CC)S(=O)(=O)NCC1CCCN1C(=O)OC(C)(C)C (stereo unspecified)	-3	-5
O=c1ccc(-c2nnco2)cn1Cc1ccc(Br)cc1F	17	16
CC(c1ccccn1)N(C)Cc1cccn1-c1ncccn1 (stereo unspecified)	-6	-9
O=C(NCC(=O)N1CCN(Cc2cccs2)CC1)c1ccc(Br)o1	14	4
Cc1cc(C)c(-c2cc(C(F)(F)F)no2)c(=O)[nH]1	2	-1
Cc1ccsc1CN(Cc1ccccc1)C(=O)CN(C(=O)NCc1ccccc1)C(C)C	5	8
CN1CCC(c2cc(NCC(c3cccnc3)N3CCOCC3)ncn2)CC1 (stereo unspecified)	-1	-2
OC(COCc1ccccc1)CN(Cc1cccc(F)c1)Cc1ccco1 (stereo unspecified)	17	15
CC(=N/O)/C(=N/O)c1ccc(C)o1	9	11
COc1ccc(CCC2(C)NC(=O)N(Cc3cnc(C)s3)C2=O)cc1 (stereo unspecified)	-2	-3
COc1cccc(-c2n[nH]c3ccnc(-c4ccccc4)c23)c1	3	1
CCC(C)(C)NC(=O)c1cccc(Nc2cc(Nc3cccc(OC)c3)nc(N)n2)c1	-1	-4
COc1csc(C(=O)Nc2sc(C)cc2C(N)=O)c1	10	4
Cc1ccc(C(c2cc(Br)ccc2O)N2CCCCC2)cc1 (stereo unspecified)	-4	-5
COc1cn(CC(=O)NCc2ccccc2)c(CN2CCC(C)CC2)cc1=O	0	0
CC(C)OC(=NC1CCCCC1)NC(=O)c1ccco1	-2	1
COc1ccc(CNC(=O)C2CC=CCC2C(=O)N2CCN(c3ccccn3)CC2)cc1 (stereo unspecified)	-2	-1
COc1cccc(Cn2cccc2CN(CC(C)O)CC2CCCCC2)c1 (stereo unspecified)	-4	6
COc1cc(OC)c(/C=C2\SC(=Nc3cc(C)cc(C)c3)NC2=O)cc1Br	-14	-22
C=CCn1c(SC(C)C(=O)N2c3ccccc3CC2C)nc2sccc2c1=O (stereo unspecified)	1	1
COc1cccc(C(=O)OC(C)C(=O)N2CCN(C(C)=O)CC2)c1O (stereo unspecified)	7	3
O=C(c1cccc(F)c1)N1CCc2ccccc2C1c1ccc(Cl)cc1 (stereo unspecified)	0	6
CCCc1nc(N2CCN(C(=O)c3ccc(C(F)(F)F)cc3)CC2)c2c(C)nn(-c3ccc(F)cc3)c2n1	-6	-5
O=C(CSc1nnc(SCC(=O)NC2CC2)s1)NC1CC1	4	5
COc1ccccc1C(=O)NCC(=O)N=Nc1c(O)[nH]c2ccc([N+](=O)[O-])cc12	-4	-10
Cc1nc2sccn2c1C(=O)NCc1snnc1C(C)C	8	6
NC(=O)c1c(SCC(=O)c2ccc(F)cc2)sc2c(O)cc(=O)[nH]c12	1	-1
COc1ccc(OC)c(N2C(=O)CSC2c2ccccc2NC(=O)c2ccc(Cl)cc2Cl)c1 (stereo unspecified)	5	20
COc1cc(=O)n(-c2ccccc2)nc1C(=O)NCC(C)C	2	-1
NC(=O)[C@@H](Cc1ccccc1)NC(=O)C1=C[C@@H](NC(=O)c2cnccn2)[C@@H](O)[C@H](O)C1	-6	-11
Cc1ccc(Cl)c(OC2CC3CCC(C2)N3C(=O)c2ccc(CSCc3ccco3)cc2)c1 (stereo unspecified)	4	5
O=C(Cc1c[nH]c2ccccc12)N1CCN(c2cc(-n3cccn3)ncn2)CC1	-10	-15
COCc1cnc2c(c1SCc1ccccc1C)c(=O)n(C)c(=O)n2C	6	12
CC(C)O[C@H]1CN(C(=O)CCCn2cnc3ccccc3c2=O)C[C@@H]1O	0	-1
Cc1ccc2c(c1)c1ncn(Cc3ccccc3)c(=O)c1n2CC(=O)NCc1ccc2c(c1)OCO2	-6	-13
COCCNCc1nccn1Cc1cccc(Cl)c1	3	3
CCc1nc2ccc(C(=O)Nc3ccc4c(c3)OCC(=O)N4)cn2c1N(C)C(=O)Cc1ccccc1	19	21
CCOC(=O)c1cc(-c2ccc(N3CCN(C(=O)C4CCCCC4)CC3)cc2)n(-c2ccccn2)n1	25	15
O=C(Nc1cc(C(F)(F)F)ccc1F)c1ccncc1	9	11
Cc1cc(O)c(CN2CCC(C)CC2)c2c1C(=O)/C(=C/c1cccnc1)O2	19	14
CCCc1ncncc1C(=O)N1CCCC(O)(CO)CC1 (stereo unspecified)	18	7
CCCCCN(Cc1nc(C(=O)OCC)cs1)C(=O)c1cccc([N+](=O)[O-])c1	18	28
Cc1cc(Cl)cc2c3c([nH]c12)CCC(NC(=O)Cc1ccc2c(c1)OCO2)C3 (stereo unspecified)	26	19
O=C(CN1CCOC1=O)N1CC(=O)N(C2CCCCC2)CC(OCc2ccccc2)C1 (stereo unspecified)	14	-2
O=S(=O)(c1ccc(Br)c2nsnc12)N1CCOCC1	2	1
N#Cc1ccc(-c2nc(-c3c(F)cccc3F)no2)cc1	3	5
Cc1ccccc1C(NC(=O)C1CCN(Cc2cccc(Cl)c2)CC1)c1cnccn1 (stereo unspecified)	-15	-19
CCN(CC)C(=O)[C@@H]1C[C@H](N)CN1C(=O)c1cc2cccc(Cl)c2n1C	-1	-2
CCCCN(C)CCNC(=O)c1c(O)nc2ccccn2c1=O	-1	17
Cc1ccc2sc(N(CCCn3ccnc3)C(=O)c3cccs3)nc2c1C	-7	-17
CCOC(=O)CC(=O)CSc1ccc2nnc(-c3ccccc3)n2n1	5	26
Cc1cccc2nc(-c3ccc(C(C)(C)C)cc3)c(NCc3ccccc3)n12	14	11
O=C(CSCCc1ccccc1)Nn1cnc2scc(-c3ccccc3)c2c1=O	-1	4
(more compounds)
SMILES	NPYLR7 ag	NPYLR7 ag max-min
CC(C)CC(=O)Nc1c2c(nn1-c1ccc([N+](=O)[O-])cc1)CSC2	-1	-4
FC(F)(F)Oc1cccc(-c2cc3c(cn2)ncn3Cc2cccnc2)c1	13	9
Oc1ccc(-n2nnnc2SCc2ccc(-n3ccnc3)cc2)cc1	3	10
CCc1c(C)nn(-c2ccc(C(=O)NC[C@@H]3CCCO3)cc2)c1C	4	5
CCOC(=O)c1c(NC(=O)c2c(F)cccc2Cl)sc2c1CCC2	10	3
CCCOC(=O)N1CCCn2nc(C(=O)Nc3ccccc3)cc2C1	2	-1
CCn1nc(C(=O)O)c2c1CCN(C(=O)C1CCN(C(=O)C(C)C)CC1)C2	2	7
CCCOc1cccc(C(=O)Nc2ccc(-c3nc4cc(Cl)ccc4o3)cc2)c1	10	7
CCCC(=O)Nc1cc(C(=O)NCCC2CCCN2C)ccc1C (stereo unspecified)	-3	-9
Cc1ccc(S(=O)(=O)NC2=NCN(CCO)CN2)cc1	-18	-24
Cc1cc(Oc2cccc(C(C)C)c2)nc(SCc2ccccc2C#N)n1	-10	-2
O=C(Nc1nnc(N=Cc2ccco2)s1)c1ccc(S(=O)(=O)N2CCOCC2)cc1	5	1
CCOc1ccc(-n2c(C)cn3c4c(=O)n(C(C)C(C)=O)c(=O)n(C)c4nc23)cc1 (stereo unspecified)	6	0
O=C(Nc1ccccc1-c1ccccc1)N1CCC2(CC1)NCCNC2=O	5	2
O=S1(=O)CC(O)C(N(CCO)C(=S)Nc2ccccc2)C1 (stereo unspecified)	1	-2

2 entries picked at random from those above:
SMILES	NPYLR7 ag	NPYLR7 ag max-min
CCc1c(C)nn(-c2ccc(C(=O)NC[C@@H]3CCCO3)cc2)c1C	4	5
CCCC(=O)Nc1cc(C(=O)NCCC2CCCN2C)ccc1C (stereo unspecified)	-3	-9

Next structures
SMILES	NPYLR7 ag	NPYLR7 ag max-min
CN(C)C(=O)c1cccc(NS(=O)(=O)N2CCCCCC2)c1	9	2
N#CCSc1nnc2c(Cl)cc(Cl)cn12	6	11
O=C(C1COc2ccccc2C1)N1CCC(Cn2cc(CCO)nn2)CC1 (stereo unspecified)	1	9
COc1ccc(C(=O)Nc2c(C)nc3cc(C)ccn3c2=O)cc1	4	1
Cc1cc(=O)[nH]c(Nc2nc(C)c3cc(C)c(C)cc3n2)n1	-2	-4
COc1cccc2cc(C(N)=O)c(=Nc3cccc(C)c3)oc12	-8	-11
NC(=O)C1CCN(Cc2cccc(C(=O)Nc3ccc4cccnc4c3)c2)CC1	4	11
CN(C(=O)c1csc(-c2ccc(Cl)c(Cl)c2)n1)c1ccc(C(N)=O)cc1	1	0
Cc1ccoc1C(=O)NCc1ccccc1-n1ccnc1C	-3	-5
Cc1c(N=Cc2ccc(Cl)o2)c(=O)n(-c2ccccc2)n1C	-3	-9
Cc1nnc2c(C(=O)NCC3CCCCC3)cccn12	4	2
O=c1c2ccccc2oc2ccccc12	1	7
Cc1nc(N2CCN(C)CC2)ncc1C(=O)N1C[C@H]2C[C@H](O)[C@@H](O)C[C@H]2C1	15	10
COc1ccc(S(=O)(=O)Oc2cc(CNC(C)C)ccc2OC)cc1	14	7
Cc1ccsc1C(=O)N1CCC1(C)C(=O)N1CCCCC1 (stereo unspecified)	6	1

16 entries from above, with values under each structure:
Fields – NPYLR7 ag, NPYLR7 ag max-min
- O=S1(=O)CC(O)C(N(CCO)C(=S)Nc2ccccc2)C1 (stereo unspecified)
  1, -2
- CN(C)C(=O)c1cccc(NS(=O)(=O)N2CCCCCC2)c1
  9, 2
- N#CCSc1nnc2c(Cl)cc(Cl)cn12
  6, 11
- O=C(C1COc2ccccc2C1)N1CCC(Cn2cc(CCO)nn2)CC1 (stereo unspecified)
  1, 9
- COc1ccc(C(=O)Nc2c(C)nc3cc(C)ccn3c2=O)cc1
  4, 1
- Cc1cc(=O)[nH]c(Nc2nc(C)c3cc(C)c(C)cc3n2)n1
  -2, -4
- COc1cccc2cc(C(N)=O)c(=Nc3cccc(C)c3)oc12
  -8, -11
- NC(=O)C1CCN(Cc2cccc(C(=O)Nc3ccc4cccnc4c3)c2)CC1
  4, 11
- CN(C(=O)c1csc(-c2ccc(Cl)c(Cl)c2)n1)c1ccc(C(N)=O)cc1
  1, 0
- Cc1ccoc1C(=O)NCc1ccccc1-n1ccnc1C
  -3, -5
- Cc1c(N=Cc2ccc(Cl)o2)c(=O)n(-c2ccccc2)n1C
  -3, -9
- Cc1nnc2c(C(=O)NCC3CCCCC3)cccn12
  4, 2
- O=c1c2ccccc2oc2ccccc12
  1, 7
- Cc1nc(N2CCN(C)CC2)ncc1C(=O)N1C[C@H]2C[C@H](O)[C@@H](O)C[C@H]2C1
  15, 10
- COc1ccc(S(=O)(=O)Oc2cc(CNC(C)C)ccc2OC)cc1
  14, 7
- Cc1ccsc1C(=O)N1CCC1(C)C(=O)N1CCCCC1 (stereo unspecified)
  6, 1

Later entries:
SMILES	NPYLR7 ag	NPYLR7 ag max-min
COc1cc(/C=C2\C(=O)N(c3ccccc3)N=C2C)c([N+](=O)[O-])cc1OC	10	7
O=S(=O)(c1ccc(Cl)cc1)N1CCN(c2nc(-c3ccccc3)nc3ccccc23)CC1	-14	-3
O=c1cc(CSc2nnnn2-c2ccccc2)c2cc3c(cc2o1)CCC3	4	5
Cc1c(O)c(CN2CCCC2)cc2c1oc(=O)c1ccccc12	0	-1
CCn1cc(S(=O)(=O)N2CC[C@@](C)(O)[C@@H](CC(C)C)C2)cn1	13	8
COc1cc2ccncc2cc1OC	2	4
C=C(C)CNC(=O)c1cc(N2CCOCC2)nc2ccccc12	6	3
Cc1ccc2occ(C3CC(=O)Nc4c3c(C)nn4-c3ccc(=O)[nH]n3)c(=O)c2c1 (stereo unspecified)	0	-5
O=C1Nc2ccc(S(=O)(=O)N3CCCC3)cc2C1=O	3	0
Cc1ccc(C)c2sc(OC3CCN(S(=O)(=O)c4cccnc4)CC3)nc12	-7	-6
COc1ccc(CNCc2ccco2)cc1OS(=O)(=O)c1ccc(NC(C)=O)cc1	19	19
CN(C(=O)COC(=O)c1ccc(Br)o1)C1CCCCC1	4	4
O=Cc1cccn1CCc1ccncc1	10	9
CCCCN(C)c1c(C)nc2ccc(C(=O)NCCOc3ccc(OC)cc3)cn12	-7	-11
O=C(c1cccc2cccc(C(=O)N3CCC(n4c(=O)[nH]c5ccccc54)CC3)c12)N1CCC(n2c(=O)[nH]c3ccccc32)CC1	-14	-21
Cc1nn(CN(C)C(c2cccnc2)C(C)C)c(C)c1Br (stereo unspecified)	-1	-1
O=C1OC(/C=C/c2ccccc2)=NC/1=C/c1cccc(Cl)c1	-4	-5
CCc1c(C)nc(-n2nc(C)cc2NC(=O)c2cccc3ccccc23)[nH]c1=O	13	6
NCC1CN(Cc2cn(CCC(N)=O)c3ccccc23)CCO1 (stereo unspecified)	6	3
O=S(=O)(c1ccc(N2CCN(c3ccccc3F)CC2)nn1)C1CCCCC1	-1	-7
CCN(CC)C(=O)c1cc(NC(=O)Nc2ccc(OC)cc2OC)ccc1N1CCCC1	-12	-5
CCCN1CCC(NC(c2nccn2C)C(C)C)CC1 (stereo unspecified)	5	3
CN(C)C(=O)COC(=O)c1cc(F)cc(Cl)c1O	3	0
O=c1c2cc3c(=O)n(C4CC4)ccc3nc2ccn1-c1ccn[nH]1	2	3
CCCCn1c(=O)[nH]c(=O)c2c1nc(COC(=O)C1CC1C)n2CC (stereo unspecified)	5	5
CCS(=O)(=O)Nc1ccc(-c2nc(CC3CCN(C)CC3)no2)cc1	-2	8
COc1ccccc1N1C(=O)c2ccccc2NC1C(OC)OC (stereo unspecified)	5	10
Cc1nc(-c2cccs2)sc1C(=O)O	-3	-3
CC(C)CC(=O)Nc1nc(OCCN2CCCC2=O)cnc1-c1cc(Cl)cc(Cl)c1	-1	0
Cc1ccc(C)c(NC(=O)C(OC(=O)CC2CCS(=O)(=O)C2)c2ccccc2)c1 (stereo unspecified)	4	2
O=C(c1ccc(F)c(F)c1)N1CCN(C(c2ccccc2)c2ccc(Cl)cc2)CC1 (stereo unspecified)	16	-3

Screens deposited in PubChem BioAssay by Fisher Drug Discovery Resource Center.

Some of the compounds tested, so the mix of outcomes need not match the whole.
